RGS16-Gao HTS – modulates binding between human RGS16 and Galphao | binding response (% of control), % at 10 µM | 220,000 tested, 0.38% active | O15492+P09471 | bead-based flow cytometry RGS16-Galphao binding, fluorescence; actives lie on both sides;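 active means below 25% or above 175%, edge rows of some plates excepted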;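 further: Galphao activated by GDP with aluminum fluoride before binding; 100% = wells without compound and 0% = beads without RGS; some results beyond the cut were filed as inactive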
Target sequence (O15492 whole entry, looked up): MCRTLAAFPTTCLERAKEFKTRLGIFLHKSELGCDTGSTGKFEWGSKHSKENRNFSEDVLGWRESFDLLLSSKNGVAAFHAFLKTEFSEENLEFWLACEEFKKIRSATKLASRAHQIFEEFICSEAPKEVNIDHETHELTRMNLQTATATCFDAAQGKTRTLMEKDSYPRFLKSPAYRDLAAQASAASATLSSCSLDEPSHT
Target sequence (P09471 whole entry, looked up): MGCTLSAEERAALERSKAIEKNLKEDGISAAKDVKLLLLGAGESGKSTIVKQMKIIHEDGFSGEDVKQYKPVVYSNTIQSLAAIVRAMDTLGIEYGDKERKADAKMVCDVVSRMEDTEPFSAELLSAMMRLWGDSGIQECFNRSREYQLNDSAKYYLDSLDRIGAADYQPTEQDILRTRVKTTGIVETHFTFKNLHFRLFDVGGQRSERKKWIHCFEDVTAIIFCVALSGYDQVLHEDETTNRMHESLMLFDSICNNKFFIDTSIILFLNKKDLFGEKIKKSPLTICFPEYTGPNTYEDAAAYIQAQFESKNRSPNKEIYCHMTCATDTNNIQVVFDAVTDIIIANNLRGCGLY
HSV replic up – increases HSV replication in cells; HSV replication augmentation in cells, fold increase; maximum fold increase; 220,000 tested, 0.005% active;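 active means peak rise of 1.5-fold or more in the series; inconclusive means self-fluorescent or not available for retest; tested in PC3 cells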;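 further: first round at 10 µM; read as green reporter fluorescence; hits show the peak of a series up to 25 µM; 1 = signal of infected wells without compound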
GALR2 agonist – GALR2 (human) receptor agonism; O43603; GALR2-expressing cells, agonist activation read-out; activation, %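 (tested at 5 µM)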; 140,000 tested, 0.48% active;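 active means above mean plus 3 SD of all compounds, about 5% in these data, not always enough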;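 further: 0% = vehicle buffer wells and 100% = reference agonist at full effect; tested in CHO reporter cells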
Target sequence (O43603 whole entry, looked up): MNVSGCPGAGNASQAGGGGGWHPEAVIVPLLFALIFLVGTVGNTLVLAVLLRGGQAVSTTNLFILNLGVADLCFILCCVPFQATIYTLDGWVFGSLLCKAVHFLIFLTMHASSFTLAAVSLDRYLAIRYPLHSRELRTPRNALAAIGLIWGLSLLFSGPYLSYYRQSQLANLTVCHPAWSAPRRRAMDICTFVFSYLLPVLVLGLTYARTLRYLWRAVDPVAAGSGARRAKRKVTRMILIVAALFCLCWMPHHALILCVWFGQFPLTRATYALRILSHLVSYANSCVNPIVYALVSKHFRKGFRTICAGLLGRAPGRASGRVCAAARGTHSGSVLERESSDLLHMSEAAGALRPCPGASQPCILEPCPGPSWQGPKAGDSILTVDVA
PKD1 inh – inhibitors of human PKD1 kinase. Q15139. PKD1 kinase fluorescence polarization assay. inhibition, %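 (about 10 µM by stock and volumes)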. 200,000 tested, 0.056% active. AID 797;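 active means inhibition of 50% or more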;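 further: controls were vehicle for no effect and a reference inhibitor for full effect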
Insulin prom inh – TRM-6 insulin promoter activity inhibition. inhibition, % at 2 µM. TRM-6 cells (human fetal islet line), insulin promoter-eGFP reporter, imaging; reporter expression induced with tamoxifen. 130,000 tested, 0.9% active;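 active means inhibition above the mean plus 3 SD, with well images judged a real hit on visual review, cut at about 60% in these data, passing the limit was not always enough; inconclusive means inhibition over the cutoff but images rejected on review; inactive means inhibition not above the cutoff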
Insulin prom inh cell count – recorded beside Insulin prom inh, whose call it bears; normalized cell count, %; measured here: cell count, toxicity; reference of the scale not given here;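 cells exposed to compound for 48 h; stained nuclei by imaging scaled within each plate; lower means fewer cells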
HSV replic up primary fold – recorded beside HSV replic up, whose call it bears; fold increase; compound at 10 µM; measured here: primary screen fold increase 10 uM; tested in PC3 cells;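 GFP signal in the first replicate; 1 = infected wells without compound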
* = called active by the depositor; i = inactive; ? = inconclusive; / = no result given.

The opening 6 entries, ahead of the listing:
SMILES	RGS16-Gao HTS	HSV replic up	HSV replic up primary fold	GALR2 agonist	PKD1 inh	Insulin prom inh	Insulin prom inh cell count
CC(C)CNC(C)C(=O)Nc1ccc(S(N)(=O)=O)cc1 (stereo unspecified)	105	i	1	/	-1	/	/
COc1ccc(OC)c(NC(=O)CSc2nnc(-c3ccco3)n2-c2ccc(C(=O)O)cc2)c1	100	i	0.99	-4.0	-2	/	/
COc1ccc(-c2csc(NC(=O)c3ccccc3S(C)(=O)=O)n2)cc1	102	i	0.92	/	-5	/	/
C/C(=N\OCC(=O)NCC(F)(F)F)c1cc2ccccc2o1	105	i	0.94	-1.4	-12	16	149
O=C(O)CC1SC(N/N=C/c2ccc(Br)cc2)NC1=O (stereo unspecified)	99	i	1	/	5	/	/
COCCOC(=O)c1c(C)oc2ccc(OCc3ccccc3)cc12	61	i	0.89	-2.4	-3	14	106

The listing, repeating the preview:
SMILES	RGS16-Gao HTS	HSV replic up	HSV replic up primary fold	GALR2 agonist	PKD1 inh	Insulin prom inh	Insulin prom inh cell count
CC(C)CNC(C)C(=O)Nc1ccc(S(N)(=O)=O)cc1 (stereo unspecified)	105	i	1	/	-1	/	/
COc1ccc(OC)c(NC(=O)CSc2nnc(-c3ccco3)n2-c2ccc(C(=O)O)cc2)c1	100	i	0.99	-4.0	-2	/	/
COc1ccc(-c2csc(NC(=O)c3ccccc3S(C)(=O)=O)n2)cc1	102	i	0.92	/	-5	/	/
C/C(=N\OCC(=O)NCC(F)(F)F)c1cc2ccccc2o1	105	i	0.94	-1.4	-12	16	149
O=C(O)CC1SC(N/N=C/c2ccc(Br)cc2)NC1=O (stereo unspecified)	99	i	1	/	5	/	/
COCCOC(=O)c1c(C)oc2ccc(OCc3ccccc3)cc12	61	i	0.89	-2.4	-3	14	106
COCCCNC(=O)c1cc2c(=O)n3cc(C)ccc3nc2nc1NCC1CCCO1 (stereo unspecified)	100	i	0.99	1.2	-7	/	/
Cc1ccc(S(=O)(=O)CCC(=O)NCc2ccco2)cc1	100	i	1	-1.3	-12	29	128
Cc1ccc(CC2CC(=O)N(c3cc(C)on3)C2=O)cc1 (stereo unspecified)	101	i	0.97	-2.0	-7	/	/
Cn1c(SCc2nn[nH]n2)nc2c1c(=O)n(Cc1ccccc1Cl)c(=O)n2C	96	i	0.95	-0.7	0	3	197
COC(=O)c1cc(NC(=O)C2CC2)cc(C(=O)OC)c1	98	i	0.86	-1.8	-7	0	96
CCCNC(=O)C(=O)N/N=C/c1cccs1	86	i	0.95	-0.7	-13	-23	128
O=C(c1ccc(CSc2ccccc2)cc1)N1CCN(c2ccccc2)CC1	109	i	1.1	/	-6	35	117
CCN(CC)S(=O)(=O)c1csc(C(=O)OCC(=O)c2ccccc2)c1	86	i	0.85	0.3	0	-25	83
CSCc1cc(N2CCOCC2)nc(SCc2ccc(Cl)cc2Cl)n1	106	/	/	0.2	-7	24	68
O=c1c2c3c(sc2ncn1/N=C/c1ccc([N+](=O)[O-])o1)CCCC3	102	i	0.7	-1.0	1	27	54
CN1CCc2c(sc3c2C(=O)NC(c2ccccc2)N3)C1 (stereo unspecified)	112	?	/	-1.4	1	-17	82
Cn1c(-c2sc3cc(C(F)(F)F)cnc3c2-c2ccccc2)n[nH]c1=S	98	i	0.9	-1.0	-4	-26	196
c1cc(-c2nnc3sc(C4CCCCC4)nn23)ccn1	102	i	1	0.2	-3	22	39
COc1ccccc1NS(=O)(=O)c1cc(NC(=O)Cn2cnc3c2c(=O)n(C)c(=O)n3C)ccc1C	101	i	0.9	-0.3	-2	7	129
CCOc1cc(/C=N\NC(=O)OC(C)(C)C)ccc1OC(=O)c1ccco1	100	i	0.81	/	-1	0	88
CC1(C)Cc2c(sc3c2c2ncnn2c2nnc(SCC(=O)NCc4ccco4)n32)CO1	92	i	1	-1.5	-19	/	/
O=C(/C=C/Nc1ccc(Br)cc1F)c1ccccc1	106	i	0.9	1.4	0	-7	111
CC(=O)N1N=C(c2ccccc2O)OC1(C)CC(=O)Nc1ccccc1 (stereo unspecified)	105	i	1.1	-0.2	-6	0	35
CCOC(=O)C1C(c2ccccc2)N(C)OC1(O)C(F)(F)F (stereo unspecified)	97	i	0.9	/	-1	-78	65
The results go on:
SMILES	RGS16-Gao HTS	HSV replic up	HSV replic up primary fold	GALR2 agonist	PKD1 inh	Insulin prom inh	Insulin prom inh cell count
Nc1n[nH]c(-c2ccc([N+](=O)[O-])cc2[N+](=O)[O-])n1	102	i	1	/	-4	/	/
COc1ccc(S(=O)(=O)N2Cc3ccccc3CC2C(=O)N2CCOCC2)cc1 (stereo unspecified)	/	i	0.76	-0.5	-1	-31	148
COC(=O)c1ccccc1N1C(=O)[C@@H]2C(c3ccc(F)cc3)=NO[C@@H]2C1=O	103	i	0.98	-0.5	10	/	/
CC(OC(=O)CCc1nc2ccccc2c(=O)[nH]1)C(=O)c1ccc(C(C)(C)C)cc1 (stereo unspecified)	102	i	0.83	-0.7	4	-19	103
N#Cc1c(SCC(N)=O)nsc1SCc1ccc(Cl)cc1	100	i	0.93	0.1	2	-11	96
CC(=O)c1ccc2c(c1)Cc1cc(C(C)=O)ccc1-2	105	i	0.95	-1.1	-3	47	135
Cc1sc2nc(SC(C)C)nc(N)c2c1C	106	i	0.87	-2.8	24	27	133
CCOC(=O)N1CCC(Nc2c(NCCCN3CCN(CC)CC3)c(=O)c2=O)CC1	103	i	0.99	-2.5	-6	12	193
O=C(O)C(Cc1c[nH]c2ccccc12)N1C(=O)C2C3c4ccccc4C(c4ccccc43)[C@@H]2C1=O (stereo partly specified)	94	i	0.9	/	/	/	/
CSCCC(NC(C)=O)C(=O)OCC(=O)N(c1ccccc1)c1ccccc1 (stereo unspecified)	101	i	0.92	-1.9	-14	-3	107
CCOc1ccc(C2CC(=O)N(Nc3ccc([N+](=O)[O-])cc3[N+](=O)[O-])C2=O)cc1 (stereo unspecified)	105	i	1.2	/	/	/	/
CC(C)CCNC(=O)CCCc1ccccc1	98	i	0.76	/	-2	/	/
CC(=O)c1c(N2CCN(c3ccccn3)CC2)nc(=S)n(-c2ccccc2)c1C	105	i	1	/	-5	/	/
Cc1sc2nc3c4ccccc4c(NCc4ccco4)nn3c(=O)c2c1C	104	i	1	0.8	-1	/	/
CCC(=O)c1ccc(OCc2ccc(C(=O)OC)cc2)cc1	105	i	0.92	-1.1	9	-23	116
CCOc1ccc(N(Cc2cc3ccc(C)cc3[nH]c2=O)C(=O)COC)cc1	103	i	0.94	-2.2	-3	/	/
Cc1nn(CC(=O)NCc2cccnc2)c(C)c1[N+](=O)[O-]	106	i	0.96	/	-2	/	/
CCOC(=O)C1=NN(c2ccccc2)C2=NC(C)=C(C(=O)OC)C(c3cccs3)N12 (stereo unspecified)	/	i	0.96	-0.6	1	-65	144
COC(=O)C1=C(C)NC(=S)NC1c1sccc1C (stereo unspecified)	64	i	1	/	-1	-21	69
CC(=O)Nc1ccc(NC(=O)CSc2ccc(C)cc2)cc1	100	i	0.99	-1.0	4	36	102
CCCCc1nc(NCCO)c(C#N)c2c1CCCC2	102	i	0.97	/	-2	/	/
O=C(Nc1ccccc1Cl)c1cnccn1	99	i	1.1	0.4	-5	/	/
Cc1ccc(O)c(N=Cc2cc(Cc3ccccc3)cc([N+](=O)[O-])c2O)c1	100	i	0.98	/	1	/	/
Nn1c(SCc2nc3ccccc3[nH]2)nnc1-c1ccccc1	99	i	0.89	-1.4	-5	-43	29
Cc1ccc(CNC(=O)/C=C/c2cccs2)cc1	103	i	1	-1.0	-11	29	113
Next part.
SMILES	RGS16-Gao HTS	HSV replic up	HSV replic up primary fold	GALR2 agonist	PKD1 inh	Insulin prom inh	Insulin prom inh cell count
O=C(NCc1ccc2c(c1)OCO2)C1CCN(S(=O)(=O)N2CCCCC2)CC1	103	i	0.93	-2.0	-8	-36	126
CCCCOC(=O)Nc1cc(Cl)ccc1C	103	i	1.1	-3.3	-6	50	106
O=C(COC(=O)CCC(=O)c1cccs1)Nc1ccc(S(=O)(=O)N2CCOCC2)cc1	98	/	/	-0.9	-8	/	/
COC(=O)C(NC(=O)CSc1nc(N)cc(=O)[nH]1)c1ccccc1 (stereo unspecified)	134	i	0.98	/	2	/	/
CCN(CC)C(=O)c1ccc(C)c(Br)c1	85	i	0.96	-1.7	-7	-356	74
O=C(Nc1ccc2oc(=O)ccc2c1)c1ccc(-c2ccccc2[N+](=O)[O-])o1	91	i	0.94	/	/	/	/
CN(C)c1cccc2c1C(=O)c1ccccc1C2=O	104	i	0.75	-0.7	14	-13	57
COc1ccc(CCNc2cc(=O)[nH]c(N)n2)cc1	98	i	0.96	-2.0	4	i	46
Cc1ccc(S(=O)(=O)N2CCCOC2CNC(=O)C(=O)NCCC2=CCCCC2)cc1 (stereo unspecified)	99	i	0.94	-1.1	-6	-17	124
O=C(c1ccc2c(Cl)c3c(nc2c1)CCCC3)N1CCN(c2ccc(F)cc2)CC1	99	i	1.2	0.8	6	-40	132
CC(C)c1cc(C(F)(F)F)n2nc(C(=O)Nc3ccc4c(c3)OCO4)cc2n1	103	i	0.86	-0.5	8	3	125
COc1ccccc1CCN=C(N)NS(=O)(=O)c1ccccc1	102	i	1	/	-7	/	/
CN1CCN(c2ccc([N+](=O)[O-])cc2C(=O)N2CCCCC2)CC1	104	i	0.87	0.0	14	0	95
Cc1nc(Cl)sc1C(=O)NC(C)c1ccc(Cl)cc1 (stereo unspecified)	103	i	0.95	-1.9	-4	6	68
C=CCNC(=O)c1ccccc1NC(=O)Nc1ccccc1	100	i	0.85	-1.4	-8	12	226
CCC(C)(C)n1nnnc1C(c1cccnc1)N1CCC(Cc2ccccc2)CC1 (stereo unspecified)	113	i	0.95	/	-6	-133	86
CCOC(=O)c1ccc2c(c1)[n+](CC)c(C)n2-c1ccccc1	126	i	0.95	/	-2	/	/
COc1ccc(Br)cc1-c1noc(-c2ccccc2)n1	108	i	0.96	-2.0	2	-205	56
COc1ccc(CC(=O)NNC(=O)c2ccc(NC(C)=O)cc2)cc1	100	i	0.97	/	0	/	/
O=C1CCC(C(=O)OCC(=O)N2N=C3/C(=C/c4ccccc4)CCCC3C2c2ccccc2)N1 (stereo unspecified)	100	i	0.77	0.5	-1	-379	76
c1ccc(C2NCCc3ccccc32)cc1 (stereo unspecified)	105	i	1.1	/	-4	-127	120
O=C(CSc1n[nH]c(-c2cccs2)n1)NCc1cccs1	101	i	0.94	-1.5	-4	-22	71
O=C(c1ccc(-n2c(SCc3cccc(F)c3)nc3ccccc3c2=O)cc1)N1CCOCC1	123	i	1	0.3	9	-82	100
O=C1Nc2cc(Cl)ccc2C1(N1CCNCC1)C(F)(F)F (stereo unspecified)	129	i	0.85	-2.1	-5	/	/
Cc1ccc(-c2cc(C(=O)NCC3CCCO3)c3ccccc3n2)o1 (stereo unspecified)	/	/	/	-1.4	-4	-48	85

3 entries out of the list, sorted by SMILES length, high to low.
SMILES	RGS16-Gao HTS	HSV replic up	HSV replic up primary fold	GALR2 agonist	PKD1 inh	Insulin prom inh	Insulin prom inh cell count
CCN(CC)S(=O)(=O)c1csc(C(=O)OCC(=O)c2ccccc2)c1	86	i	0.85	0.3	0	-25	83
Cc1nn(CC(=O)NCc2cccnc2)c(C)c1[N+](=O)[O-]	106	i	0.96	/	-2	/	/
COC(=O)c1cc(NC(=O)C2CC2)cc(C(=O)OC)c1	98	i	0.86	-1.8	-7	0	96

New compounds follow.
SMILES	RGS16-Gao HTS	HSV replic up	HSV replic up primary fold	GALR2 agonist	PKD1 inh	Insulin prom inh	Insulin prom inh cell count
COc1ccc(N2CC(C(=O)OCC(=O)NCc3ccccc3)CC2=O)cc1 (stereo unspecified)	106	i	0.99	-1.9	-4	-17	103
Cn1nnnc1SCCNCc1cccnc1	96	i	0.91	-2.0	1	/	/
CC1(C)N=C(c2cccs2)C(C)(C)N1O	104	i	1	-1.3	-6	-3	90
CCCOC(=O)c1ccc(NC(=O)c2ccoc2C)cc1	100	i	0.96	-1.1	-3	28	71
CCOc1cc(C)cc2oc(=O)cc(-c3ccccc3)c12	100	i	0.9	-0.3	-1	-37	96
COc1ccc(NC(=O)CSc2ccccc2)cc1S(=O)(=O)N1CCCCC1	104	i	1	-0.6	-14	-62	85
O=C(CCC1CCCN(C(=O)c2ccoc2)C1)NCc1ccc(F)c(F)c1 (stereo unspecified)	100	i	0.91	/	1	/	/
O=C(c1ccco1)N1CCN(C/C=C/c2ccccc2)CC1	107	i	0.91	-1.1	-5	/	/
CCNc1nc(N)nc(-c2cc(Cl)ccc2OC)n1	101	i	0.86	-0.4	-1	3	106
C=CCc1cccc(/C=N/NC(=O)C(C)Nc2ccc(C)cc2)c1O (stereo unspecified)	134	i	0.8	-0.8	-3	17	56
